# High-throughput results deposited in PubChem BioAssay by National Center for Advancing Translational Sciences (NCATS).
# StopGo reporter: lowers the luciferase signal of an FMDV 2A StopGo reporter | human cells with a luciferase reporter of 2A StopGo recoding; control for the full effect not named in the record | 1.2% of 410,000 active | Potency, µM (highest dose often 57.9 µM), inactives show top-dose signal change, negative = less light; active = well fitted falling curve with a large enough effect; inconclusive = small, poorly fitted or top-dose-only effect; inactive = no such curve, though single readings can be large or run the other way; tested in HEK293T cells; further: on the % scale 0 is the no-effect control and ±100 the full control effect; nearly all actives have a fitted effect of over 45% in size; luciferase light after 4 h
# RE007 growth inh: less growth of the S. pombe RE007 Vpr strain | S. pombe RE007 Vpr strain, BacTiter-Glo ATP luminescence, 24 h; control for the full effect not named in the record | Potency, µM (doses to about 92.2 µM), without a hit: top-dose activity change, negative = less growth | 0.21% of 360,000 active | AID 651644; active = well fitted falling curve with a large enough effect; inconclusive = small, poorly fitted or top-dose-only effect; inactive = no such curve, though single readings can be large or run the other way;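 further: on the % scale 0 is the no-effect control and ±100 the full control effect; nearly all actives have a fitted effect of over 50% in size; the assay follows cell death caused by Vpr and the record does not say whether a fall means rescue or toxicity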
#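 Fission yeast strain RE007, carrying one chromosomally integrated HIV-1 vpr copy, was seeded at OD 0.01 in PMG+AL medium with 23 nL pinned compound. After 24 h at 30 °C and 99% humidity, viability was read by BacTiter-Glo luminescence.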
# Cruzain inh Det: cruzain (T. cruzi) inhibition with detergent | purified cruzain, Z-FR-AMC fluorescence, 0.01% Triton | Potency, µM, for inactives: max response, negative = inhibition, most hits filed as inhibitors | 0.43% of 200,000 active | AID 1478; active means well fitted curve in the direction sought with a large enough effect; inconclusive means small, poorly fitted or top-dose-only effect, or another doubt; inactive means no such curve, though single readings can be large; an effect the other way counts as inactive or inconclusive;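 further: plate controls were neutral wells for no effect and buffer without enzyme for full effect; nearly all actives have a fitted effect of over 40% in size; top concentration of the series not given in the record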
# Target sequence (P25779 123-467 limits assumed): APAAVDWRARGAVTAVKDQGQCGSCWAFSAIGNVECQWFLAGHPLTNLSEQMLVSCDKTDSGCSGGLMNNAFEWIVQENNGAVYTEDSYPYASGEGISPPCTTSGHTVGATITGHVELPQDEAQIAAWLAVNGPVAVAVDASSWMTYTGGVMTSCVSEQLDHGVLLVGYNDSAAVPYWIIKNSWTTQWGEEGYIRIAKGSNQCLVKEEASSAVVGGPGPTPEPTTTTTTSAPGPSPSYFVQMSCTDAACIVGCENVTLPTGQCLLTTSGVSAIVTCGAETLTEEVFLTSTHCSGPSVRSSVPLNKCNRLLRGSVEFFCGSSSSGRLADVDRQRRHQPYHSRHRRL
#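 Sodium acetate buffer (100 mM, pH 5.5) containing 5 mM DTT and 0.01% Triton X-100 hosted 1.5 nM cruzain and test compound for 15 min at room temperature. Cleavage of 2 uM Z-FR-AMC was then tracked by fluorescence.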
# Marburg entry inh: inhibitors of Marburg virus binding or cell entry; Potency, µM (top dose mostly 37.8 µM), inactives show top-dose activity change, negative = inhibition, actives largely listed as inhibitors; 1.8% of 300,000 active; AID 540276; Marburg virus pseudotyped entry inhibition, cell reporter; control for the full effect not named in the record; about a third of the inactives were read at about 46 µM; active = well fitted inhibition curve with a large enough effect; inconclusive = small, poorly fitted or top-dose-only effect, or effect the other way; inactive = flat fitted curve, though single readings scatter; tested in HEK293 cells; about a fifth of its hits are not listed in these tables; further: on the % scale 0 is the no-effect control and ±100 the full control effect; luciferase read-out
# Lassa entry inh: inhibitors of Lassa virus binding or cell entry; Lassa virus pseudotype entry inhibition, cell reporter; control for the full effect not named in the record; 1.2% of 300,000 active; Potency, µM (top dose mostly 37.9 µM), for inactives: at the top dose activity change, negative = inhibition, hits mostly inhibitors; AID 540256; active means well fitted inhibition curve with a large enough effect; inconclusive means small, poorly fitted or top-dose-only effect, or effect the other way; inactive means flat fitted curve, though single readings scatter; tested in HEK293 cells; further: on the % scale 0 is the no-effect control and ±100 the full control effect; nearly all actives have a fitted effect of over 50% in size; luciferase read-out
# Cruzain noTriton: cruzain (T. cruzi) inhibition without detergent. Potency, µM, inactives show max response, negative = inhibition, actives largely listed as inhibitors. purified cruzain, Z-FR-AMC fluorescence, no detergent. AID 1476. 2.3% of 200,000 active; active means well fitted curve in the direction sought with a large enough effect; inconclusive means small, poorly fitted or top-dose-only effect, or another doubt; inactive means no such curve, though single readings can be large; an effect the other way counts as inactive or inconclusive;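 further: plate controls were enzyme without inhibitor for no effect and buffer without enzyme for full effect; nearly all actives have a fitted effect of over 40% in size; top concentration of the series not given in the record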
#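 Purified cruzain at 1.5 nM, pre-incubated 15 min with compound at room temperature in 100 mM sodium acetate pH 5.5, 5 mM DTT, 0.00005% Triton X-100. Reaction started with 2 uM Z-FR-AMC; AMC fluorescence increase over 60 s gives rate.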
# NS1 inh: blocks influenza NS1 protein function; S. cerevisiae slowed by influenza A NS1, growth recovery by OD600; Potency, µM (highest dose often 46.1 µM), without a hit: top-dose activity, positive = more growth; 0.4% of 270,000 active; further: actives are rising curves; nearly all actives have a fitted effect of over 50% in size
#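 Recovery from NS1-induced slow growth read by OD600 in budding yeast switched to galactose assay medium (pH 6.0, -URA) at 1:100 dilution. Compound 23 nl per well; the matching strain lacking NS1 serves as control.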
# SARS PLpro yeast: inhibitors of SARS-CoV papain-like protease in yeast; S. cerevisiae expressing SARS-CoV PLpro, growth rescue; control for the full effect not named in the record; Potency, µM (doses to about 32.9 µM), for the others: at the top dose activity, positive = growth rescue; 0.19% of 330,000 active; AID 485353; further: 0% is about no effect; nearly all actives have a fitted effect of over 55% in size; growth read by luminescence after 48 h
# * marks the source's active call; other numbers are inactive results; u = inconclusive; x = not tested or not shown; & = joins results of further samples; ! = not active in a repeat; [ ] = dose if it differs, or a comment. Unless noted, the call rests on the fitted dose curve; in most records, active means well fitted rising curve with a large enough effect; inconclusive means small, poorly fitted or top-dose-only effect; inactive means no such curve, though single readings can be large or run the other way. Potency means the concentration at half of the fitted maximal effect.
Compound,StopGo reporter,RE007 growth inh,Cruzain inh Det,Marburg entry inh,Lassa entry inh,Cruzain noTriton,NS1 inh,SARS PLpro yeast
Cc1ccccc1OCC(=O)NNC(=O)Cc1ccc(S(=O)(=O)N2CCOCC2)s1,7%,7%,x,-15%,-3%,x,x,x
CN(Cc1ccon1)C(=O)CC1C(=O)NCCN1CC1CCCCC1 (stereo unspecified),-22%,15%,x,6%[46.1 µM],-2%,x,9%,0%
Cc1ccc(CNC(=O)CSc2c3c(nc4ccc(Cl)cc24)CCCC3)cc1,-12%,x,-0.7%,-1%[46.1 µM],20%[46.1 µM],0%,x,x
COC(=O)C1=C(C(=O)OC)SC2(S1)C(C(=O)OC)=C(C(=O)OC)SC1=C2c2cccc(C)c2NC1(C)C,12%,-4%,-7.1%,-7%,2%,-1%,u,3%
COc1cccc(CNC(=O)CCC2CCCN(C(=O)c3cc(C)on3)C2)c1 (stereo unspecified),9%,-3%,x,x,x,x,5%,0%
CCN1/C(=C/C(=O)c2ccco2)Sc2ccccc21,35%[activator],-24%,-7.0%,3%,0%,-3%,-148%,-13%
O=C(O)Cc1sc(Nc2ccccc2)nc1-c1cccs1,78%[activator],-15%,x,x,x,x,-36%,-2%
Cc1ccc(S[C@@H](CCN2CC[C@H](O)CCC2=O)c2ccccc2)cc1,7%,11%,x,x,x,x,19%,-2%
CCN1CN(Cc2ccco2)CNC1=S,11%,0%,1.9%,23%,u,3%,11%,-6%
O=C(O)C1CC=C(Cl)CC1C(=O)NC1CCCCC1 (stereo unspecified),-6%,-1%,x,-27%[46.1 µM],u,x,2%,1%
Cc1nc2ccccc2c(=O)n1-c1ccccc1[N+](=O)[O-],6%,15%,x,x,x,x,1%,-2%
COc1cccc(C(=O)COC(=O)CCC(=O)NC2CCCCC2)c1,-9%,-5%,x,x,x,x,-4%,0%
CCS(=O)(=O)N1Cc2ccccc2CC1C(=O)N1CCN(c2cccc(C)c2C)CC1 (stereo unspecified),-19%,22%,-8.9%,u,u,u,-10%,-5%
Cc1scc(CN2CCN(c3ccccc3F)CC2)c1C,-18%,x,-0.8%,x,28%[46.1 µM],5%,x,x
COc1ccc(-c2nc3ccc(N4CCCC4)cc3c(=O)[nH]2)cc1OC,-26%,-7%,0.7%,-33%,u,u,13%,-5%
Cn1c(CSc2nnc(SCc3ccccc3)s2)nc2ccccc21,-11%,-3%,3.7%,u,35%,-7%,-36%,24%
COCCNc1nc(-c2ccccc2)nc2c1oc1ccccc12,-25%,-14%,x,-7%,-5%,x,-38%,-12%
CCc1noc(C)c1C(=O)Nc1cc(Cl)ccc1N1CCCC1,u,-1%,x,u,u,x,x,2%
Cc1ccc2cn[nH]c2c1[N+](=O)[O-],0%,2%,x,-6%[46.1 µM],9%[46.1 µM],x,x,2%
CCCN(CCC)CCNC(=O)c1cc2c(C)nc3ccccc3c2o1,-19%,-9%,3.3%,-20%,0%,11%,0%,4%
COc1ccccc1C1C(C(C)=O)=C(C)N=c2s/c(=C\c3cc(OC)c(OC)c(OC)c3)c(=O)n21 (stereo unspecified),-28%,6%,-1.1%,u,9%,u,20%,15%
CC(C)CNc1oc(-c2ccco2)nc1C#N,16%,-5%,-5.7%,19%,10%,-9%,-13%,-11%
COc1cccc(NC(=O)c2nnn(Cc3ccc(Br)cc3F)c2N)c1,34%[activator],11%,-3.3%,0%,x,-24%,16%,-8%
COc1cc(/C=C/C(=O)Nc2nc3ccc(S(=O)(=O)NC(C)C)cc3s2)cc(OC)c1OC,0%,1%,-4.0%,-17%,15%,u,13%,-18%
O=C(CCC(=O)c1cccs1)OCC(=O)c1ccc(F)cc1,9%,-8%,x,-8%,6%,x,x,-5%
CCOC(=O)c1cc(=O)c2ccc(OCc3ccccc3)cc2o1,-1%,-14%,x,-4%,4%,x,-2%,1%
O=C1c2ccccc2C(=O)N1CCCC(=O)N1CCCc2ccccc21,-17%,10%,-4.9%,16%,13%,-8%,-18%,-7%
Clc1nc2c(ccc3ccccc32)[nH]1,32%[activator],-18%,x,x,x,x,-48%,-2%
CC(OC(=O)CC1Sc2ccccc2NC1=O)C(=O)N(C)Cc1ccccc1 (stereo unspecified),-8%,12%,x,1%[46.1 µM],12%,x,x,x
Cc1ccc(CNc2ncnc3c2cnn3-c2ccc(C)cc2C)cc1,-22%,x,-4.8%,x,-9%[46.1 µM],5%,x,x
O=C(Nc1ccc(C(=O)N2CCN(c3ccccc3F)CC2)cc1)c1nsc2ccccc12,-12%,x,-0.5%,x,u,u,x,x
CC(CNC(=O)CCS(=O)(=O)c1cc2c(cc1Cl)NC(=O)CO2)c1ccccc1 (stereo unspecified),0%&-15%,2%,x,x,3%[46.1 µM],x,1%,5%
COC(=O)CN1C(=O)C2(C(C#N)=C(N)Oc3cc(C)oc(=O)c32)c2ccccc21 (stereo unspecified),2%,28%,0.1%,10%[46.1 µM],2%,-9%,-11%,10%
O=C(NCc1ccccc1F)C(c1ccccc1)c1ccccc1,-3%,4%,x,x,x,x,1%,0%
Cc1ccccc1CSCC(=O)NNC(=S)NCC1CCCO1 (stereo unspecified),-7%,25%,x,-4%,0%,x,17%,-8%
N#CCc1ccc(NC(=O)Cn2c(=O)oc3ccccc32)cc1,7%,3%,x,u,-2%,x,4%,-2%
COc1ccc(Cl)cc1NC(=O)CN(C(=O)c1ccco1)C1CCCCC1,-10%,-2%,-5.9%,-3%,3%,11%,-33%,4%
N#Cc1cc(-c2ccccc2)nnc1Sc1ccccc1,5%,0%,0.3%,19%[46.1 µM],u,25µM*,3%,0%
CN(C)/C=C/C(=O)c1cnc(-c2ccc(Cl)cc2)s1,37%[activator],2%,x,-9%[46.1 µM],7%,x,x,-10%
Cc1ccc(-c2nn(CC(=O)NCc3cc(-c4nn(C)c(=O)c5ccccc45)ccc3C)c(=O)c3ccccc23)cc1,16µM*,12%,-3.3%,3.2µM*!,u,-7%,2%,-3%
CCN(CCO)C(=O)c1ccc2oc(Cc3ccc(Cl)cc3)nc2c1,-4%,2%,x,x,x,x,4%,23%
O=C(C1CCCO1)N1CCN(S(=O)(=O)c2ccc(Br)cc2)CC1 (stereo unspecified),-24%,3%,x,x,x,x,-1%,-6%
CC(=O)C1C(c2ccc(F)cc2)c2c(noc2C)CC1(C)O (stereo unspecified),5%,1%,x,u,21%,x,-2%,1%
NNC(=O)CNC(=O)C12CC3CC(CC(C3)C1)C2,7%,5%,x,13%[46.1 µM],3%,x,6%,0%
O=C(Nc1ccc(N2CCN(C(=O)c3ccco3)CC2)c(Cl)c1)c1cc2ccccc2o1,8.9µM*,-20%,4.6%,u,u,-15%,-65%,-13%
O=C(O)CCCN1C(=O)/C(=C\c2ccccc2OCc2ccccc2)SC1=S,10%,-23%,x,-9%[46.1 µM],-18%[46.1 µM],x,2%,-5%
CCN(CC(=O)Nc1ccc(NC(C)=O)cc1)C(=O)c1ccc2ccccc2c1,24%,0%,x,0%,3%,x,x,x
CC1Cc2c([nH]c(=O)n(-c3ccccc3)c2=O)O1 (stereo unspecified),-6%,27%,x,u,15%,x,x,x
C/C(=N/NC(=O)CSc1nc2ccccc2s1)c1ccncc1,u,6%,x,u,11%,x,-5%,-2%
Cc1cccc(N=Nc2c(O)[nH]c3ccc(F)cc23)c1,84%[activator],-28%,x,u,x,x,x,-5%
O=C(Nc1ccc2c(c1)OCO2)c1ccccc1SCC(=O)N1CCCC1,8%,12%,1.9%,0%,4%,0%,-1%,4%
CN(C(=O)c1nn(C)c2c1CSc1ccccc1-2)c1ccc(F)cc1,-3%,-11%,x,x,x,x,-23%,-28%
Cc1nc2c(c(N3CCOCC3)n1)OCC(=O)N2,-15%,-3%,-1.0%,-3%,4%,2%,3%,-4%
CCCSc1nnc(N)s1,-14%,1%,-0.1%,u,-9%,1%,-19%,13%
CCN(CC)S(=O)(=O)c1cc(NC(=O)C2Cc3ccccc3C(=O)O2)ccc1C (stereo unspecified),-13%,17%,x,x,x,x,-11%,0%
O=C(C1CC(=O)N(c2ccc3c(c2)OCCO3)C1)N1CCN(c2ccccc2)CC1 (stereo unspecified),u,-6%,x,4%,-12%,x,x,-2%
Cc1cc(=O)oc(C)c1C(=O)N[C@@H](Cc1ccccc1)C(=O)O,-11%,-5%,x,x,x,x,3%,-1%
O=C(N/N=C/c1cn(-c2ccccc2)nc1-c1cccnc1)c1ccccc1,-12%,-18%,x,u,-27%[46.1 µM],x,x,0%
O=C(CCC1CCCC1)NCCCNC(=O)CCC1CCCC1,1%,-2%,x,x,x,x,-12%,-2%
NC(=O)CSc1nnc(Cc2ccc3c(c2)OCO3)n1C1CCCCC1,32%[activator],4%,4.5%,2%,u,1%,-3%,6%

# (further entries)
Compound,StopGo reporter,RE007 growth inh,Cruzain inh Det,Marburg entry inh,Lassa entry inh,Cruzain noTriton,NS1 inh,SARS PLpro yeast
CN1CCN(/N=C/c2c(O)n(C)c(=O)n(C)c2=O)CC1,3%,0%,x,-4%[14.2 µM],-3%,x,-2%,0%
CC(Sc1nc2c(cc1C#N)CCCCC2)C(=O)O (stereo unspecified),-25%,28%,x,3%[46.1 µM],1%[46.1 µM],x,4%,0%
O=C(CSc1oc(-c2ccco2)nc1S(=O)(=O)c1ccc(Br)cc1)c1ccccc1,44%[activator],x,-4.2%,19%[46.1 µM],-15%[46.1 µM],u,x,x
Cc1cc(C)c(OCC(=O)N(Cc2ccc(N(C)C)cc2)CC2CCCO2)c(C)c1 (stereo unspecified),5%,x,-4.6%,-20%[46.1 µM],u,6%,x,x
Cc1ccc(C)c(S(=O)(=O)N2CCN(C(=O)C3CCN(c4ncnc5sc(C)c(C)c45)CC3)CC2)c1,u,6%,x,u,u,x,x,0%
